Screening data as filed in PubChem BioAssay.
PV pol inh: poliovirus RNA polymerase inhibition | P03300 | poliovirus polymerase elongation, fluorescence polarization; active compounds read low | AID 588519 | % elongation, % (compound at 16.7 µg/mL) | 150,000 tested, 0.66% active; in the data active = % elongation below about 90%; also: some results filed as inactive read as strong as hits
Mtb MbtI inh: MbtI salicylate synthase inhibition | AID 493033 | inhibition, %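 (about 17 µg/mL by stock and volumes)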 | purified MbtI enzyme, fluorescence intensity read-out | 100,000 tested, 0.89% active;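 active = above 50% in both replicates, above 80% if mildly self-fluorescent; inactive = the rest, strongly fluorescent compounds included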;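 also: 0% = mean of negative and 100% = mean of positive controls; one replicate is shown; some compounds called inactive have numbers as strong as hits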
Target sequence (P9WFX0 whole entry, looked up): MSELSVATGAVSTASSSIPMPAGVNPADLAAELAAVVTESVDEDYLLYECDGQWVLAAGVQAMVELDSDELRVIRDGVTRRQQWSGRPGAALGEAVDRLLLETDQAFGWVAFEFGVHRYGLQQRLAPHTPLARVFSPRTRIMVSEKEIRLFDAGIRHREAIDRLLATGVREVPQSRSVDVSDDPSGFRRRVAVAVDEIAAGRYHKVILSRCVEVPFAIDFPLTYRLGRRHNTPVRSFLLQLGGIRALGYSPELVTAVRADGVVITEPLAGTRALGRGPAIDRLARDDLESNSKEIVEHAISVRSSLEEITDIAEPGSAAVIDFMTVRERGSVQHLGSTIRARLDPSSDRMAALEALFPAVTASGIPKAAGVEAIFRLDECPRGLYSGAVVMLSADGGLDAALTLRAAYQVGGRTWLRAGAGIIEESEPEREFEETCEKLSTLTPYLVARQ
Mtb MenB inh: inhibitors of Mycobacterium tuberculosis MenB enzyme | P9WNP5 | MenB enzyme assay, absorbance read-out; some hits fall short of the stated cut | inhibition, %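 (about 12 µg/mL by stock and volumes)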 | 100,000 tested, 0.43% active | AID 540299;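 active = mean of two replicates above 30%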;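 also: 0% = no compound and 100% = wells with inactive enzyme; the first replicate is given; strong numbers were not always called active; inactives centre near -10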
Target sequence (P9WNP5 whole entry, looked up): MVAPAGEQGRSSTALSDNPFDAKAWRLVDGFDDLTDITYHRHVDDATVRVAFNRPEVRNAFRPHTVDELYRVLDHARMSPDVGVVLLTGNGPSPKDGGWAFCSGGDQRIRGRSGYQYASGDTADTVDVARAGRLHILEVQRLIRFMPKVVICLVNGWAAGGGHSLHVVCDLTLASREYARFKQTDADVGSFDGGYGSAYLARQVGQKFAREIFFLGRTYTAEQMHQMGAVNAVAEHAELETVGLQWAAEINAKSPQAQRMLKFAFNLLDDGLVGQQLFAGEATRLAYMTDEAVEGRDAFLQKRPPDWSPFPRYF
PV pol inh intensity: also measured in PV pol inh; calls as there; % elongation; measured here: total intensity read-out; formula for this scale not given here;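 total fluorescence in place of polarization; lower means less elongation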
Starred values were filed as active, the others as inactive; / = not tested or not shown; & = joins results of further samples.

molecule	PV pol inh	PV pol inh intensity	Mtb MbtI inh	Mtb MenB inh
CN(CC(=O)Nc1sc2c(c1C(=O)c1cccs1)CCCC2)C1CCCCC1	102	101	7	3
COc1ccc(C(=O)c2ccccc2)c(OCC(=O)NC23CC4CC(CC(C4)C2)C3)c1	104	89	/	-7
CCOC(=O)c1nc(C)nc(Sc2n[nH]c(-c3ccccc3)n2)c1C	101	102	4	9
COc1ccccc1CNC(=O)c1ccccc1OC	101	101	6	5
CCC1(C)NC(=O)N(/N=C/c2c(O)ccc3ccccc23)C1=O (configuration not stated)	107	106	-30	-43
CC(C)(C)c1ccccc1OCC(=O)Nc1ccc(OCc2ccccc2)cc1	110	113	/	-20
Cc1[nH]n(-c2ccccc2)c(=S)c1/C=N/c1nc(-c2ccccc2)cs1	99	103	11	-8
O=C1Nc2ccccc2N(O)N1c1cc(-c2ccccc2)[nH]n1	99	103	-4	8
CCN(CC)CCOc1ccc(/C(C)=N\O)cc1	103	106	-12	/
Nc1nc(C(F)(F)F)cc(=O)n1N	99	103	3	0
CCCCCc1ccc(CC(=O)O)cc1	99	100	-2	0
CCCn1nc(C(=O)NCc2ccccc2)c2ccccc2c1=O	99	103	2	-2
CN(C)CCCNc1oc(-c2ccccc2Cl)nc1S(=O)(=O)c1ccc(F)cc1	100	102	-28	-11
O=C(Cc1cccc(F)c1)NC1CCOc2ccccc21 (configuration not stated)	100	106	-4	-9
Cc1c(C)c(C)c(CSc2ccccc2N)c(C)c1C	105	109	-5	-23
COc1cc(Br)c(CNC(C)(C)CO)cc1OC	101	104	-14	-11
CC(=O)NCCSc1nnnn1-c1ccccc1	104	102	-1	-2
Cc1ccc(NC(=S)NC(=O)CC2CC(C)(C)OC2=O)cc1 (configuration not stated)	101	106	-7	-6
CCN(Cc1ccncc1)C(=O)COc1ccccc1O	100	96	-10	/
CCOC(=O)c1oc2ccc(Br)cc2c1COC(=O)C1CC2CCCC(C1)C2=O (configuration not stated)	101	101	19	10
Cn1c(C(=O)N2CCCC(C(=O)N3CCc4ccccc4C3)C2)cc2sccc21 (configuration not stated)	103	104	7	-17
Cc1oc2ccc(O)c(Cl)c2c1C(=O)O	101	103	0	-1
Cc1nnsc1-c1onc(C)c1C(=O)O/N=C(\N)c1cc(C(F)(F)F)cc(C(F)(F)F)c1	101	100	6	-5
COc1cc2c(cc1OC)C(C(=O)N1CC(C)CC(C)C1)C(c1cccnc1)N(C)C2=O (configuration not stated)	101	103	3	-12
CCc1ccc(NC(=O)NCc2c(C)nn(C)c2C)cc1	101	104	-8	-6
Cc1ccc(C)c(NC(=O)CN(C)S(=O)(=O)c2ccc3c(c2)CCCC(=O)N3)c1	101	101	7	-24
O=C(c1ccccc1)c1ccc(C(=O)N2CCN(c3ccc(O)cc3)CC2)cc1	104	112	61	-27
COc1ccc(-c2csc(NCCCN(C)C)n2)cc1	105	104	17	-25
CCOc1ccc(C(NC(=O)c2ccco2)c2ccc(OC)c(OC)c2)cc1 (configuration not stated)	101	104	-26	11
O=C(O)c1ccccc1C(=O)Nc1ccc(S(=O)(=O)Nc2nccs2)cc1	102&97	99&99	-12&-10	-9&-11
C=C(C(=O)O)C(CC(=O)O)C(=O)O (configuration not stated)	104	106	-3	-10
N#Cc1c(NC2CCCCC2)nc(-c2ccco2)c2c1CCCC2	103	103	49	-29
O=C(CCNc1ccc(Cc2ccncc2)cc1)c1ccco1	100	102	11	-13
c1ccc2sc(NC3=NCN(CC4CCCO4)CN3)nc2c1 (configuration not stated)	102	102	9	4
NC1=NC(=O)C(CC(=O)O)CS1 (configuration not stated)	106	112	/	3
Cc1c(C(=O)N2CCCCCC2)oc2ccccc12	103	102	-7	-12
O=C(O)CN(CCc1ccccc1)S(=O)(=O)c1ccccc1	102	106	-7	-8
Cn1c(CN)nnc1SCc1ccccc1	100	102	2	-40
CCc1nnc(NC(=O)COC(=O)CSc2nc(-c3ccccc3)cc(-c3ccccc3)n2)s1	107	105	/	-7
COCCOC(=O)c1sc(=S)n(CCOC)c1N	80	198	33	-29
Cc1nn2c(C)c(C(=O)Nc3ccccc3)cnc2c1C#N	103	102	14	-54
Cn1c(=O)n(C)c2cc(/C=C3\C(=O)NC(=O)N(c4ccc(Cl)cc4)C3=O)ccc21	100	104	12	-2
CCOCCC(=O)N1CCN(C)CC1	100	99	-9	-25
Cc1ccc(S(=O)(=O)N(CC(=O)NCc2ccncc2)C2CCCCC2)cc1	97	99	/	6
COc1ccccc1N1CCN(C(c2cccs2)C(C)NS(=O)(=O)c2ccc(F)cc2)CC1 (configuration not stated)	100	99	-1	-34
O=C(CC1CCCCC1)Nc1ccccn1	102	103	-6	-49
Cc1c(O)c2ccccc2n(C)c1=O	103	103	106	5
CC(C)N(Cc1ccccc1)S(=O)(=O)c1ccc(C#N)cc1	101	104	2	-13
Cc1cc(C)cc(NC(=O)CSCCn2c(C)csc2=O)c1	103	102	11	-17
CCOC(=O)CN1C(=O)COc2ccc(C)cc21	98	103	-17	1

(further entries)
molecule	PV pol inh	PV pol inh intensity	Mtb MbtI inh	Mtb MenB inh
CCOC(=O)COc1cccc2c(=O)n(CC(=O)N3CCCCC3)ccc12	104	109	3	-25
O=C1c2cccc3cccc(c23)N1CN1CCN(c2ccccc2)CC1	99	101	-1	-9
CCc1cc2c(SCC(=O)c3ccc(Br)cc3)ncnc2s1	101	108	-6	1
CC(C)(C)C1CC(C(F)(F)F)n2nc(C(=O)O)cc2N1 (configuration not stated)	102	104	/	-2
CN(CCc1ccccn1)c1nc(C(F)(F)F)nc2ccccc12	98	103	3	-4
Cc1nc(=O)c(-c2ccccc2)c(C)n1-c1ccccc1	101	105	-14	/
C=CCC(CC=C)(C(=O)O)c1ccccc1	100	101	5	-4
N#Cc1c(-c2cccs2)oc(-n2cccc2)c1-c1cccs1	102	105	4	12
O=C(NCC(c1cccnc1)N1CCN(c2ccccc2)CC1)OCc1ccccc1 (configuration not stated)	102	98	5	-3
CCCN(CCC)CCCn1cnc2c([nH]c3ccc(Cl)cc32)c1=O	104	103	-8	9
Cc1ccc(-c2cnnn2-c2ccc(-c3csc(C)n3)cc2)cc1	101	98	-2	-11
Cc1ccc(C)n1-c1ccc(C(=O)OCc2nc3ccsc3c(=O)[nH]2)cc1	106	112	21	-9
CC(Sc1ccccc1)C(=O)NCCc1ccccc1 (configuration not stated)	100	101	-7	-9
CC(C)Cn1c(-c2ccccc2)c[nH]c1=S	106	101	26	-41
O=C(CC1SC(=NC2CCCCC2)NC1=O)Nc1ccccc1 (configuration not stated)	105	103	-4	-38
Cc1nc2c3ccccc3n3c(CCCC(=O)NCCc4ccc(Cl)cc4)nnc3n2n1	101	104	1	6
CC1=C(C(N)=O)C(c2ccco2)C(C#N)=C(SCC(=O)N2CCc3ccccc3C2)N1 (configuration not stated)	105	116	3	-10
Cc1ccc(-c2nnc(SCC(=O)C(C)(C)C)n2N)cc1	103	108	-9	-12
O=C(NN1CCOCC1)c1ccc(Cl)cc1	101	104	-20	-6
CCOc1ccc(-c2nc(C#N)c(N3CCCC3)o2)cc1	100	103	-116	1

Individual results from above.
CC(Sc1ccccc1)C(=O)NCCc1ccccc1 (configuration not stated) in Mtb MenB inh is listed with -9
O=C(NN1CCOCC1)c1ccc(Cl)cc1 in PV pol inh is listed with 101

(continued)
molecule	PV pol inh	PV pol inh intensity	Mtb MbtI inh	Mtb MenB inh
O=c1/c(=C\c2ccccc2)sc2nncn12	98	95	-1	/
CC1(C)CC(=O)C(C=Nc2ccc(S(N)(=O)=O)cc2)=C(O)C1	100	104	4	3
CNC(=O)c1n[nH]c(=O)c2ccccc12	100	108	1	15
CC(C#N)(NC(=O)CSc1ncccn1)C1CC1 (configuration not stated)	102	103	-8	-3
Cn1nnc(C(O)CNCc2ccc(Cl)cc2)n1 (configuration not stated)	103	102	/	4
COCCNc1nc(-c2cc(C)n(-c3ccccc3F)c2C)cs1	104	108	0	-32
CCOC(=O)N1CCN(C(=O)CSc2ncc(C(=O)O)n2-c2ccc(F)cc2)CC1	94	90	-8	2
COc1ccc2c(c1)c1ncn(CCc3ccc(Cl)cc3)c(=O)c1n2C	104	104	2	-21
CCCn1c(=O)/c(=C2/C=Cc3ccccc3N2C)s/c1=C1\SC(=S)NC1=O	101	101	-5	24
NC(=O)c1c(NC(=O)COC(=O)Cc2ccsc2)sc2c1CCCC2	110	115	14	-2

Laid out differently: results already given.
Below each SMILES – PV pol inh, PV pol inh intensity, Mtb MbtI inh, Mtb MenB inh
Cn1nnc(C(O)CNCc2ccc(Cl)cc2)n1 (configuration not stated)
    103, 102, /, 4
COCCNc1nc(-c2cc(C)n(-c3ccccc3F)c2C)cs1
    104, 108, 0, -32
CCOC(=O)N1CCN(C(=O)CSc2ncc(C(=O)O)n2-c2ccc(F)cc2)CC1
    94, 90, -8, 2
COc1ccc2c(c1)c1ncn(CCc3ccc(Cl)cc3)c(=O)c1n2C
    104, 104, 2, -21
CCCn1c(=O)/c(=C2/C=Cc3ccccc3N2C)s/c1=C1\SC(=S)NC1=O
    101, 101, -5, 24

Later entries.
molecule	PV pol inh	PV pol inh intensity	Mtb MbtI inh	Mtb MenB inh
O=C(c1cccc(S(=O)(=O)Nc2ccccn2)c1)N1CCCc2ccccc21	100	101	-5	-12
Cc1csc(NC(=O)c2ccccc2C(=O)O)c1-c1nc2ccccc2s1	99	93	-5	-31
Cc1ccc(N=Cc2ccc(Br)s2)c(C)c1	108	103	/	-12
CN(C)/C=N/n1cnc2ccccc2c1=O	103	108	14	-13
COCCN1Cc2cc3cc4c(cc3nc2SC1=Nc1cccc(OC)c1)OCO4	104	102	-1	-44
CC1=NNC(=O)C1CCC(=O)N/N=C/c1ccccc1 (configuration not stated)	105	100	9	-22
N#Cc1cccn1Cc1ccccc1Cl	99	102	-8	7
Nc1nccnc1C(=O)OCC(=O)NC1CC1	98	98	105	10
Cc1ccc(C)c(N(C)C(=O)c2cc3c(s2)-c2ccccc2SC3)c1	103	108	-2	-21
Cc1nn(Cc2ccccc2)c(Cl)c1/C=C/C(=O)OCc1nnc(-c2ccccc2)o1	108	111	-22	4

Six structures from above, ordered by formula weight, low to high.
molecule	PV pol inh	PV pol inh intensity	Mtb MbtI inh	Mtb MenB inh
CN(C)/C=N/n1cnc2ccccc2c1=O	103	108	14	-13
Nc1nccnc1C(=O)OCC(=O)NC1CC1	98	98	105	10
CC1=NNC(=O)C1CCC(=O)N/N=C/c1ccccc1 (configuration not stated)	105	100	9	-22
O=C(c1cccc(S(=O)(=O)Nc2ccccn2)c1)N1CCCc2ccccc21	100	101	-5	-12
COCCN1Cc2cc3cc4c(cc3nc2SC1=Nc1cccc(OC)c1)OCO4	104	102	-1	-44
Cc1nn(Cc2ccccc2)c(Cl)c1/C=C/C(=O)OCc1nnc(-c2ccccc2)o1	108	111	-22	4

Following part:
molecule	PV pol inh	PV pol inh intensity	Mtb MbtI inh	Mtb MenB inh
Cc1nc2ccccc2c(=O)n1/N=C/c1ccccn1	103	96	-1	-30
Nc1cc(=O)[nH]c(SCC(=O)N2CCCCC2)n1	103	108	-14	-17
CCC1CN(C(=O)NCc2ccc(C)cc2)c2ccccc2S1 (configuration not stated)	104	107	-8	-22
S=C(Nc1ccc(CN2CCOCC2)cc1)Nc1ccccc1Cl	101	106	-1	-8
N#Cc1cc2c(nc1SCC(=O)c1ccccc1)CCC2	103	100	7	-10
Cc1ccc(C(=O)NC(C(=O)N(C)C)=C(Cl)Cl)cc1	100	101	8	/
CCC1CN(C)CCC1(O)c1ccccc1 (configuration not stated)	101	103	-2	10
O=C(c1ccco1)N1C(=O)c2cccc3c(S(=O)(=O)N4CCCC4)ccc1c23	102	105	-6	-19
O=C(COc1ccc2ccccc2c1)Nc1c2c(nn1-c1ccc(F)cc1)CS(=O)(=O)C2	103	101	10	-36
O=C(NCCc1c[nH]c2ccccc12)c1c(Cl)nc2sccn12	104	113	1	0
Cc1ccc2c(c1)c1c(n2C)/C(=N/NC(N)=S)CCC1	98	101	3	8
Cc1sc(NC(=O)COc2cccc(F)c2)c(C#N)c1C	100	100	5	/
O=C(O)c1cc2c([nH]c1=O)CCCCC2	104	103	89	-4
N#C/C(C(N)=O)=C1/N=C(N)c2ccccc21	100	104	-8	-232
COC(CNC(=O)Cn1ncc2c(=O)oc3ccccc3c21)OC	103	109	-5	-14
O=C(O)c1nccnc1C(=O)NCc1ccccc1	103	104	-14	-10
